Source: PubChem BioAssay (National Center for Advancing Translational Sciences (NCATS))
ClpP mod – qHTS Assay for Activators of ClpP; ATP-dependent Clp protease proteolytic subunit (Bacillus subtilis (strain 168)), P80244; purified B. subtilis ClpP, FRET peptide cleavage, 20 min; Potency, µM (doses to about 57.5 µM), inactives show at the top dose activity change, negative = active; 340,000 compounds, 1.9% hits; AID 651965, 2013; active = well fitted falling curve with a large enough effect; inconclusive = small, poorly fitted or top-dose-only effect; inactive = no such curve, though single readings can be large or run the other way; also: potency is read from the fitted curve at half-maximal effect; the source files actives as falling curves though it sought activators and does not explain the sign; nearly all actives have a fitted effect of over 65% in size; many hits overshoot -100%
Target sequence (P80244 whole entry, looked up): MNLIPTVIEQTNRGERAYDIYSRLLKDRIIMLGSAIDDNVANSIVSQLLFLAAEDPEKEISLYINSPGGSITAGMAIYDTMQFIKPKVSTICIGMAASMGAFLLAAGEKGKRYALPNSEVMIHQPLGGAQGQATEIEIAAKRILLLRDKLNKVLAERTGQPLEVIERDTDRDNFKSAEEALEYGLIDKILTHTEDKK
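ClpP 10 microg/mL final, pH 8 Tris/KCl buffer with BSA, glycerol, Tween-20; compound pinned in; FRET-FV substrate; RT 20 min; Ex320/Em430; ΔFRET vs ADEP 5.8 microM, DMSO, no enzyme.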
Menin-MLL FL inh – inhibitors of human menin-MLL interaction, wild-type MLL peptide | Fluorescence polarization, fluorescein-MLL peptide displacement from menin | FP activity change, % at 61.4 µM | 290,000 tested, under 10 active | AID 1766; inconclusive = falling polarisation curve, or a change in total fluorescence; inactive = total fluorescence flat and polarisation flat or rising; no compound was filed as active; the % refers to the polarisation; negative = inhibition;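 also: % of control where 0% means no effect; inhibitors lower the polarisation; unlabelled MLL peptide was the positive control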
gsp ag – activates gsp, the McCune-Albright syndrome mutation; gsp mutant cells, cAMP HTRF, 30 min; control for the full effect not named in the record; Potency, µM (titrated, usually from 76.9 µM), for inactives: top-dose activation (cAMP increase), most hits filed as activators; 340,000 compounds, 0.13% hits; AID 624287; active = well fitted activation curve with a large enough effect; inconclusive = small, poorly fitted or top-dose-only effect, or another doubt; inactive = no such curve, though single readings can be large or run the other way; cell line not stated here;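 also: phosphodiesterase inhibitor Ro 20-1724 added with compounds to block cAMP breakdown; potency is read from the fitted curve at half-maximal effect; nearly all actives have a fitted effect of over 60% in size; about a fifth of the inactives were tested at one dose only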
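Cells in DMEM/10% FBS with G418 were pretreated with compounds in DMSO plus […] (300 uM stock) for 30 min at 37C. cAMP was measured by HTRF (cAMP-d2 plus anti-cAMP antibody-K) after 30 min at room temperature.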
TRPV1 potentiator – potentiators of human vanilloid receptor 1 (TRPV1); Q8NER1; TRPV1-expressing cells, Fluo-8 calcium influx, capsaicin EC20 potentiation; host cell line not named in the record; control for the full effect not named in the record; potentiation, % at 8.33 µM; 320,000 compounds, 0.02% hits; active means potentiation above 80%; inconclusive means 30% to 80%; inactive means below 30%; also: 0% is about no effect
Target sequence (Q8NER1 whole entry, looked up): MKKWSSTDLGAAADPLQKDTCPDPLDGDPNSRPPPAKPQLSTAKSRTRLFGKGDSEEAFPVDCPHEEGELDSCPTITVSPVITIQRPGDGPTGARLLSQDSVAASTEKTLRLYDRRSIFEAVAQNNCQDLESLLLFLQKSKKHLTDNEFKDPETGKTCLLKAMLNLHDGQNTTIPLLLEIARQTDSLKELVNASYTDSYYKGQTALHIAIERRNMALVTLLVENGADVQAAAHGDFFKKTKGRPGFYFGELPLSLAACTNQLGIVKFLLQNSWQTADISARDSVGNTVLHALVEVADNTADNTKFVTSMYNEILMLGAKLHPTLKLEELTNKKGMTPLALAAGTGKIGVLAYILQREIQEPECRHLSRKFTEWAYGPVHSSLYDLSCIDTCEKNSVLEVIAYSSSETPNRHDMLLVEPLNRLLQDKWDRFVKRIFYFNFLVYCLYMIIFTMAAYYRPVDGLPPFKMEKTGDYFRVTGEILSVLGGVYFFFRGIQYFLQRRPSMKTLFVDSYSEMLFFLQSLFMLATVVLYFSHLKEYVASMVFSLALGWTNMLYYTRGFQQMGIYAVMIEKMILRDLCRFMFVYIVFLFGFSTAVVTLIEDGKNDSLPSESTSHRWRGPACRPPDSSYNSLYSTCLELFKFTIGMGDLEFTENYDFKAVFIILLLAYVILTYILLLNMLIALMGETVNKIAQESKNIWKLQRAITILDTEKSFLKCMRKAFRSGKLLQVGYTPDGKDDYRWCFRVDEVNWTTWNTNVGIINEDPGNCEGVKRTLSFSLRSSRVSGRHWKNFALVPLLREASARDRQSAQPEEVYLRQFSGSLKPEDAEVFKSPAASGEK
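TRPV1-expressing cells were cultured overnight at 35.5C and loaded with Fluo-8 calcium dye for 40 to 90 min at room temperature. After a 10 s baseline, compound was added and calcium influx was read kinetically for 3 min (ex 480/em 520 nm).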
CtBP-E1A inh – inhibitors of CtBP/E1A interaction; AlphaScreen GST-E1A/His-CtBP binding, 1536-well; hits give low values; control for the full effect not named in the record; 340,000 compounds, 0.49% hits; activity change, % (concentration not given with the values); in the data active means activity change below about -65%; inconclusive means about -30% to -65%; inactive means above about -30%; also: % is scaled to controls: 0 for no effect and ±100 for the full control effect
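AlphaScreen with 125 nM GST-E1A and 125 nM His-CtBP (5X stocks) in Tris pH 8.0, 300 mM NaCl, BSA, Tween 20, TCEP. Compounds preincubated 2 h at 37 deg C, then glutathione donor/nickel acceptor beads added for 1 h at 37 deg C in dark.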
Sfp PPTase inh – Sfp phosphopantetheinyl transferase inhibition | AID 1490 | Q9F4F7 | Potency, µM, for inactives: max response, negative = inhibition, most hits filed as inhibitors | 310,000 compounds, 3.5% hits | Biochemical Sfp PPTase activity, qHTS; active = well fitted inhibition curve with a large enough effect; inconclusive = small, poorly fitted or top-dose-only effect, or another doubt; inactive = no such curve, though single readings can be large or run the other way;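 also: the enzyme is Sfp with the accession as filed and its product quenches rhodamine fluorescence; potency is read from the fitted curve at half-maximal effect; 0% = enzyme reaction without inhibitor and -100% = no enzyme wells; top concentration of the series not given in the record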
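With Hepes-Na pH 7.6 buffer containing 10 mM MgCl2, Sfp (15 nM) modified BHQ-2-YbbR (12.5 uM) using rhodamine-CoA (5 uM). Two reads 30 minutes apart at 525/598 nm yielded each well's rate.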
gsp antagonist – antagonists of gsp mutant (McCune-Albright syndrome); gsp-mutant cells, cAMP HTRF, 30 min; control for the full effect not named in the record; Potency, µM (doses to about 76.9 µM), inactives show top-dose activity change, negative = inhibition, most hits filed as inhibitors; 340,000 compounds, 0.4% hits; active = falling curve of any shape with a large fitted effect; inconclusive = falling curve, mostly with a smaller effect; inactive = flat or rising curve; cell line not stated here;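 also: intracellular cAMP measured with PDE inhibitor Ro 20-1724 present during compound exposure; potency is read from the fitted curve at half-maximal effect; % is scaled to controls: 0 for no effect and ±100 for the full control effect; nearly all actives have a fitted effect of over 65% in size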
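HTRF cAMP read-out (cAMP-d2 plus anti-cAMP antibody-K in lysis buffer, 30 min RT). Before lysis, cells are exposed to compounds with […] for 30 min at 37C in DPBS containing Ca/Mg, BSA and Tween 20.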
Starred values were filed as active, the others as inactive; ? = inconclusive; nt = not tested or not shown; & = joins results of further samples; [ ] = dose if it differs, or a comment. Rows are unselected; about 5.3% have a hit in one of these screens.

SMILES	ClpP mod	Menin-MLL FL inh	gsp ag	TRPV1 potentiator	CtBP-E1A inh	Sfp PPTase inh	gsp antagonist
Clc1ccc(Oc2nc(Oc3ccc(Cl)cc3)nc(N3CCOCC3)n2)cc1	-2.4%	-1.0	-57%[inhibitor]	-1	5	5%	0%
O=[N+]([O-])c1cccnc1Oc1cccnc1	-1.2%	3.1	-12%[15.4 µM]	-2	0	8%	6%
COc1ccc(C2NC3=C(CCCC3)C(C#N)(C#N)C2(C#N)C#N)cc1 (stereo not given)	nt	?	nt	-8	nt	56µM*	nt
COC(=O)C1=C(CS(=O)(=O)c2ccccc2)NC(=O)NC1c1ccc(OC)c(OC)c1 (stereo not given)	-5.2%	0.8	2%	-7	nt	11%	-3%
Oc1ccccc1N=N/C(=N/Nc1ccccc1O)c1ccccc1	0.6%	nt	nt	28	-1	nt	-9%
CCOc1ccc(OCCC(=O)OCC(=O)Nc2cc(S(=O)(=O)N3CCOCC3)ccc2C)cc1	2.0%	nt	?	-11	15	nt	-10%
COc1ccc(-n2nc(C(=O)NCC(=O)N3CCCC3)c3ccccc3c2=O)c(OC)c1	-3.2%	-0.5	-46%[15.4 µM]	-8	-17	21%	0%
COC(=O)c1ccccc1NC(=O)C1CCCN(S(=O)(=O)c2ccccc2)C1 (stereo not given)	-29%	-1.4	-1%	0	0	9%	-20%
Cc1ccccc1C(=O)Nc1cccc(NC(=S)NC(=O)c2cccs2)c1	-1.4%	0.0	-30%[inhibitor]	8	-3	-23%	-6%
Cc1ccc(S(=O)(=O)N(C)CC(O)Cn2c3ccccc3c3ccccc32)cc1 (stereo not given)	-5.9%	-2.0	0%	-9	-1	13%	-5%
CCS(=O)(=O)c1ccc2oc(Nc3cc(C)cc(C)c3)nc2c1	-1.6%	4.3	-1%	2	-16	1%	-8%
CCn1cc(CNC(=O)c2cc(-c3ccccc3OC)nc3ccccc23)c(C)n1	-7.7%	2.3	-2%	-17	0	20%	3%
O=C(COC(=O)CCSc1ccc(Cl)cc1)NCCc1ccccc1	-1.3%	-2.8	-4%[15.4 µM]	-2	3	14%	-4%
C[C@@H]1CN([C@@H](C)CO)C(=O)c2c(c3ccccc3n2C)-c2ccccc2CO[C@H]1CN(C)C(=O)[C@H](Cc1ccccc1)N(C)C	?	nt	-10%	nt	-10	nt	nt
COc1ccc(OC)c(/C=N/N2CCN(c3ccc(Cl)cc3)CC2)c1	1.9%	0.9	4%	-8	nt	2%	5%
CC1CCCN(Cc2cccc(Oc3ccccc3)c2)C1 (stereo not given)	0.1%	3.1	-29%	9	6	10%	8%
COc1cc(CC(NC(C)=O)C(=O)NC2CCN(C(=O)c3cc(OC)c(OC)c(OC)c3)CC2)cc(OC)c1 (stereo not given)	nt	-1.9	-4%	2	0	8%	0%
CCN1CCN(C(=O)C2CCN(Cc3nc(-c4cccc(Cl)c4)oc3C)CC2)CC1	-3.5%	0.6	-23%	2	-4	6%	10%
COc1cc(/C=C(/C#N)C(=O)NCCCc2ccccc2)ccc1OCC(=O)O	-3.4%	-2.1	7%	3	nt	4%	6%
CCOC(=O)/C(N=Nc1sc(C(=O)OC)c(C)c1C(=O)OCC)=C(\O)CCl	-2.3%	1.4	22%	-3	-9	-14%	-6%
CCc1ccc(N(C(=O)CCC(=O)Nc2cc(C)on2)C(C(=O)NC(C)(C)C)c2ccc(OC)cc2)cc1 (stereo not given)	nt	-1.8	0%	-2	24	17%	-22%
O=C(O)C(Cc1ccccc1[N+](=O)[O-])N1C(=O)c2ccccc2C1=O (stereo not given)	-24%	nt	?	nt	-19	nt	6%
Cc1ccc2c(c1)-c1c(ssc1=S)C(C)(C)N2C(=O)c1ccco1	0.9%	0.2	-58%[inhibitor]	-8	11	20µM*	-1%
Oc1c(Br)cc(C2N=C(c3ccccc3)NO2)cc1Br (stereo not given)	-1.6%	3.3	-14%	-4	0	-11%	?
CCC(Sc1nc2ccsc2c(=O)n1Cc1ccc(C(=O)O)cc1)C(=O)Nc1ccc(C)c(Cl)c1 (stereo not given)	1.0%	nt	-2%	5	nt	-11%	?
COc1ccc(S(=O)(=O)N2CC(C)OC(C)C2)cc1C(=O)N1CCCCC1 (stereo not given)	-1.7%	nt	-4%	-12	4	-1%	2%
CN1CCN(C(=O)c2cc(=O)c3cc(Cl)ccc3o2)CC1	nt	3.7	5%[15.4 µM]	2	3	7%	3%
CN(C)CCN(Cc1ccccc1)S(=O)(=O)c1csc(C(N)=O)c1	-1.7%&-1.0%	-8.3	-26%	3	1	5%	13%
CC(=O)Nc1ccc(S(=O)(=O)N2CCN(C(C)CCc3ccccc3)CC2)cc1 (stereo not given)	-1.9%	2.1	-5%	-7	-8	-13%	-4%
CN(Cc1ccccc1)C(=O)c1[nH]cnc1C(=O)NC1CCN(C(=O)OC(C)(C)C)CC1	-1.6%	nt	17%	nt	4	nt	-10%
CCOc1ccccc1/C=c1\sc2ncnn2c1=O	0.8%	2.9	?	-13	5	-9%	2%
Cc1ccc(-c2cc3nc(-c4ccccc4)cc(NCCCO)n3n2)cc1	4.3%	nt	?	nt	8	nt	nt
CCc1ccc(-n2c(SCC(=O)c3ccc4c(c3)NC(=O)CO4)nc3ccccc3c2=O)cc1	-0.7%	1.1	4%[15.4 µM]	-4	7	17%	-10%
COc1ccccc1N1CCN(C(=O)N2CCOCC2)CC1	-0.7%	-0.1	2%	-22	4	10%	0%
CCOC(=O)c1[nH]c2ccccc2c1NC(=O)C1CCCC1	-8.9%	2.3	22%	-15	0	7%	1%
O=C(NC1CCCC1)C(c1ccco1)N(C(=O)c1ccco1)c1ccc(F)cc1 (stereo not given)	-0.6%	nt	4%[15.4 µM]	-4	16	21%	-16%
COc1ccc(N=c2oc3c(OC)cccc3cc2C(=O)NCc2ccco2)c(OC)c1	-0.1%	?	12%	-9	-5	?	7%
CC1CCN(CC(=O)Nc2ccc(S(=O)(=O)N3CCCC(C)C3)cc2)CC1 (stereo not given)	0.4%	-1.9	-24%	-3	3	-3%	8%
CC(C)Oc1ccc(C(=O)NCCNC(=O)c2ccco2)cc1	nt	-2.9	8%	-40	6	7%	-2%
O=C(NCc1ccc2c(c1)OCO2)c1cc(-c2ccccc2)c(N2CCOCC2)s1	?	nt	-3%	-18	nt	19%	-11%
Cc1ccc(NC(=O)CSc2nc(-c3ccco3)cc(C(F)(F)F)n2)cc1C	-1.1%&-7.1%	0.0	2%	7	8	13%	2%
COc1cc(-c2cc(C(=O)OCC(=O)NC3CC3)c3ccccc3n2)cc(OC)c1OC	nt	nt	0%	nt	6	nt	-8%
O=C(CSc1nnc(NC2CCCCC2)s1)Nc1ccc(N2CCOCC2)cc1	-0.1%	6.1	11%	-10	7	-12%	-7%
CC(CNC(=O)C1CCCCC1C(=O)O)c1ccccc1 (stereo not given)	0.4%	1.0	-6%	2	6	2%	6%
CCOC(=O)c1csc(NC(=O)c2cc(=O)c3ccccc3o2)n1	-3.0%	1.9	?	7	-22	12%	-27%
Cc1cccc(Nc2ncc3c(n2)CC(C)CC3=O)c1 (stereo not given)	-2.8%	-4.5	-47%[inhibitor]	-25	-4	-1%	4%
O=C(C1CCC1)N1CCc2cc(S(=O)(=O)NCCN3CCN(c4ccccc4F)CC3)ccc21	0.3%	3.4	6%	4	-8	7%	-13%
COc1cc(C(=O)O)nc2ccc([N+](=O)[O-])cc12	nt	-2.1	-3%[15.4 µM]	-6	nt	10µM*	-8%
COc1ccc(CC(=O)NNC(=O)c2ccc(Br)s2)cc1OC	nt	nt	2%	nt	2	nt	-4%
Cc1cc(C(F)F)n2nc(C(=O)Nc3ccccc3Br)nc2n1	0.2%	2.0	?	20	6	-1%	-4%
(list continues)
SMILES	ClpP mod	Menin-MLL FL inh	gsp ag	TRPV1 potentiator	CtBP-E1A inh	Sfp PPTase inh	gsp antagonist
Nc1ccn(CC(=O)NCCCc2ccccc2)c(=O)n1	-0.7%	nt	nt	-2	7	nt	5%
Cc1nn(CC(=O)Nc2ccc(Br)cc2F)c(=O)c2cccn12	-2.2%	nt	25%	10	2	7%	24%
CCOc1ccc(Br)cc1S(=O)(=O)Nc1ccc(C(=O)OCC(=O)N(C)c2ccccc2)cc1	-0.7%	0.9	11%[15.4 µM]	7	11	32%[activator]	-36%
Cc1cccc(C(=O)N2CC3(C)CC2CC(C)(C)C3)c1 (stereo not given)	-3.9%	0.2	-1%	-11	5	5%	-5%
N#Cc1ccsc1NC(=O)CN1CCN(Cc2ccccc2)CC1	nt	-0.9	30%[15.4 µM]	10	-5	-6%	-4%
Cc1ccc(NC(=O)C(c2ccccc2)c2ccccc2)c(O)c1	nt	-0.6	-36%[15.4 µM]	-11	10	0%	-27%
Cc1nc(-c2ccncc2)sc1C(=O)Nc1ccc(Cl)cc1	nt	0.8	0%[15.4 µM]	-11	1	19%	-7%
CC1CC(C)CN(C(=O)CCCn2c(=S)[nH]c3ccccc3c2=O)C1 (stereo not given)	0.9%	3.3	-8%	-26	-2	-11%	-1%
CC(C)=CCC/C(C)=C/C=N/NC(=O)c1cccc([N+](=O)[O-])c1	-0.9%	4.8	-52%[inhibitor]	-16	6	13%	2%
CC[C@]12c3[nH]c4cc(CCC(=O)N(C)C)ccc4c3CCN1C(=O)[C@@H](CC(=O)NCCC1=CCCCC1)C[C@@H]2C(=O)N1CCN(C(=O)c2ccco2)CC1	-0.2%	nt	nt	nt	0	nt	-14%
CCC(C(=O)NCC1CCCO1)N(C(=O)c1snc(C(N)=O)c1N)c1ccc(Cl)cc1 (stereo not given)	nt	0.1	27%[15.4 µM]	-1	7	7%	3%
Cc1ccc(S(=O)(=O)c2c(N)n(Cc3ccco3)c3nc4ccccc4nc23)cc1	14µM*	?	3%	13	-1	3%	-3%
O=C(Cc1nnc(NC(=O)Nc2ccc(F)cc2)s1)NCc1ccccc1	nt	4.4	19%	3	4	-5%	11%
